Sa RN4220 lethal: growth inhibition of S. aureus RN4220, primary screen, OD600 | 16 h | AID 1259311, 2017 | inhibition, % (test concentration not listed) | 330,000 compounds, 0.33% hits;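 active means z-score of -3 or lower and OD600 up to 0.18 on both plates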;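 further: plate controls were untreated cells for no effect and reference antibiotic for full effect; stock transfer was 100 nL into about 80 µL; one replicate is shown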
Autofluor counter: flagged as autofluorescent in microsphere protease counterscreen. compound autofluorescence counterscreen, microsphere flow cytometry; stronger effect = higher value. 360,000 compounds, 3.1% hits. fluorescence intensity (concentration not given with the values). AID 624483;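 active means at least 3 SD above the mean of all compounds, about 16000 in these data; inconclusive means too few beads counted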;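 further: 100 nL of 1 mM stock went into each well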
PrP UTR inh: inhibition of PrP 5' UTR reporter expression | cell-based PrP 5' UTR mRNA reporter, plate reader | inhibition, % (test concentration not listed) | 340,000 compounds, 0.35% hits | AID 488862, 2010;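 active means every replicate at 50% or more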;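 further: 0 = median of the neutral control wells; tested in H4 reporter cells; numbers are from one replicate; inactives centre near -14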
BJeLR lethal: MLPCN primary cell-based screen for lethality selective to Ras in HRASV12 cells | inhibition, % (no concentration beside the values) | BJeLR (HRASV12) viability, CellTiter-Glo ATP luminescence, 48 h; reference of the scale not given here | 300,000 compounds, 0.17% hits;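 active means replicate mean above 50%; inconclusive means above 50% but judged a plate artefact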;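 further: 50 nL library stock added to about 25 µL; numbers are from one replicate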
ugtP null kill: growth inhibition of ugtP-null S. aureus, primary screen, RN4220 ugtP deletion, OD600. 16 h; some inactives read as strong as hits. AID 1259309, 2017. growth inhibition, % (test concentration not listed). 330,000 compounds, 0.54% hits;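 active means z-score under -3 and OD600 up to 0.15 on both plates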;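 further: plate controls were untreated wells for no effect and antibiotic for full effect; wells of about 80 µL received 100 nL stock; the first replicate is given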
Mtb hypoxia inh: PubChem AID 1159583; 300,000 compounds, 0.1% hits; M. tuberculosis hypoxia-regulated fluorescent reporter, fluorescence; fluorescence inhibition, % (no concentration beside the values);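 active means 35 to 45% if threefold the growth effect, above 45% if 1.5-fold the growth effect; inactive means the rest, general growth blockers included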;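 further: wells of about 50 µL received 100 nL stock; 0% = vehicle wells and 100% = reference inhibitor wells; whole bacteria with a GFP reporter of the hypoxia response; strong numbers were not always called active; many hits fall short of the cut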
Mtb hypoxia inh growth: further read-out of Mtb hypoxia inh, marked with its call; growth inhibition, %; measured here: M. tuberculosis growth (absorbance);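 0% = vehicle and 100% = reference antibiotic; read after six days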
An asterisk follows results filed as active; ? = inconclusive; nt = not tested or not shown.

The line under a structure holds: Sa RN4220 lethal	Autofluor counter	PrP UTR inh	BJeLR lethal	ugtP null kill	Mtb hypoxia inh	Mtb hypoxia inh growth
O=P(Oc1ccccc1)(Oc1ccccc1)C(O)c1ccc(Cl)cc1 (stereo not drawn)
  8.3	3938	3	-22	1	1	13
Cc1ncc(CN2CCC(n3nccc3NC(=O)c3ccccc3)CC2)s1
  -0.5	5760	-15	1	-1	5	-1
CCN(CC)S(=O)(=O)c1ccc(N2CCOCC2)c(NC(=O)Cc2ccccc2)c1
  11	6999	-14	0	1	8	2
O=C(O)CSc1nnc(-c2ccccc2)c(-c2ccccc2)n1
  1.7	4738	-1	11	5	0	11
CC1(C)NC(=O)N(CC(O)CN(Cc2ccccc2)Cc2ccccc2)C1=O (stereo not drawn)
  5.4	6044	-30	-2	-2	-2	8
Cc1ccccc1Cn1cc(NC(=O)c2nc3ncccn3n2)cn1
  2.3	10500	-27	-2	12	8	4
O=S(=O)(c1ccc(F)c(F)c1)N1CCN(Cc2ccc3c(c2)OCO3)CC1
  0.5	3597	-7	-5	4	nt	nt
O=C1c2ccc([N+](=O)[O-])cc2C(=O)N1c1ccc(Cl)cn1
  3.1	3972	-33	-7	10	11	2
CC(C)(C)OC(=O)N1CCN(C(=O)c2[nH]cnc2C(=O)NCC(=O)OCc2ccccc2)CC1
  2.5	2981	-17	9	1	1	8
Cc1n[nH]c(C)c1S(=O)(=O)N1CCCC(C(=O)NCc2ccc(F)cc2)C1 (stereo not drawn)
  5.5	4480	84*	-8	5	10	2
Cc1ccc(N2C(=O)N(Cc3ccccc3C)c3ccccc3S2(=O)=O)cc1
  -1.0	2313	-5	-4	24	-5	-4
Cc1cccn2c(=O)c3cc(C(=O)NCc4ccco4)c(=N)n(C4CCCCC4)c3nc12
  1.9	3647	-20	5	0	3	13
CC(C)C(=O)Nc1cccc(NC(=S)NC(=O)c2ccc([N+](=O)[O-])cc2)c1
  5.5	22965*	-40	-4	-15	-5	4
O=C(c1ccccc1)c1cc(Cl)ccc1N1C(=O)C=CC1=O
  1.2	5131	-3	nt	7	9	1
C/C(=C\C(=O)c1ccccc1)NNc1nc2ccccc2s1
  0.1	3333	-10	-9	5	nt	nt
CN(C)c1ccc(C=NNC(=O)CN2CCN(c3ccc(F)cc3)CC2)cc1
  3.7	nt	nt	nt	3	10	8
NC(=S)Nc1cc2ccccc2c2ccccc12
  11	19680*	-38	-3	-5	8	9
CCOc1cc(CNC2CCCC2)c(Cl)cc1OCC(=O)Nc1ccccc1
  3.5	4113	-28	11	-3	15	4
COc1ccc(C(N)=O)c(OCC(=O)Nc2cc(C)on2)c1
  6.4	3530	-23	nt	0	-3	5
CC(=O)Nc1ccc(/C=C(\C#N)C(=O)NCc2ccccc2)cc1
  2.1	2668	-14	6	-1	4	13
Cc1cc(C)n(CC(=O)NNC(=O)COc2ccc(F)cc2Br)n1
  3.4	3122	-3	nt	6	4	-6
COc1ccc(/C=N/NC(=O)c2cccc([N+](=O)[O-])c2)cc1OC(=O)c1ccccc1
  nt	10217	-18	3	nt	nt	nt
CCOC(=O)Cc1nc2ccccc2n(CC#N)c1=O
  0.3	5069	-34	-13	1	9	2
O=C(NC1CCOc2ccccc21)C1CCCC1 (stereo not drawn)
  7.0	4435	-31	4	-1	23	27
C/C=C/C=[N+](\[O-])C(C)C(=NO)c1ccc(F)cc1 (stereo not drawn)
  -5.4	nt	nt	nt	-3	1	-1
CN(C)c1ccc(C=NNC(=O)C(=O)N2CCCCCC2)cc1
  7.4	nt	nt	nt	5	-1	-4
Nc1ccc2oc(=O)c(-c3ccccc3)cc2c1
  7.6	3486	-45	-4	8	-4	-3
CCOC(=O)C1=C(C)Nc2nnnn2C1c1cccc(OC)c1OC (stereo not drawn)
  2.2	9790	-28	-5	-2	3	7
Cc1ccc(Cn2nc(C)c(NC(=O)c3nn(C)cc3Cl)c2C)cc1
  -2.2	3462	-4	-4	-7	1	4
Cc1ccc(N(C(=O)CNC(=O)c2ccco2)C(C(=O)NC2CCCCC2)c2cccnc2)cc1F (stereo not drawn)
  4.2	4213	-13	-2	0	-1	-1
CCOC(=O)N1CCN(C(=O)C2CCCN(S(=O)(=O)c3cccnc3)C2)CC1 (stereo not drawn)
  4.9	5873	-10	-10	0	nt	nt
CCCCOC(=O)COc1cc(C)cc2oc(=O)c3c(c12)CCC3
  3.1	8651	-16	6	-4	8	11
COc1ccc(-c2n[nH]c(C)c2-c2cnn(-c3ccccc3)c2)c(O)c1C
  -5.1	nt	-14	-5	27	3	10
CCCN1CCN(CCCNC(=O)c2ccc3c(c2)NC(=O)c2ccccc2S3)CC1
  4.7	4740	9	10	7	15	10
O=C(NCCc1c[nH]c2ccccc12)C(=O)NCC1OCCCN1S(=O)(=O)c1ccccc1 (stereo not drawn)
  3.0	2728	-18	0	-1	0	3
CC(C)(C)c1ccc(C(=O)NNC(=O)c2cccc(Br)c2)cc1
  3.5	15175	-41	-11	-1	8	9
CCCC1(c2ccccc2)NC(=O)N(CC(=O)Nc2cc(OC)cc(OC)c2)C1=O (stereo not drawn)
  11	4819	2	-4	-3	8	-3
CCc1ccc(/C=N/N2CCN(c3ccccn3)CC2)cc1
  nt	3782	-76	-15	nt	nt	nt
Cc1ccccc1NC(=O)COC(=O)CC1CCCC1
  4.5	4154	-17	nt	9	2	-3
COC(=O)C(C(=O)Nc1ncccn1)C1CCCCCC1 (stereo not drawn)
  -9.2	2956	-10	-12	-10	9	8
CCCCN1CC(=O)N2C3c4cc(C)ccc4OCC3C(C(=O)OCC)[C@]2(C)C1=O (stereo partly drawn)
  4.7	nt	nt	nt	6	7	8
COc1ccc(CCNS(=O)(=O)c2cc(C(=O)O)c(Cl)cc2Cl)cc1
  3.7	4049	-19	3	2	13	3
O=S(=O)(NCC(c1cccnc1)N1CCN(c2ccc(F)cc2)CC1)c1ccccc1 (stereo not drawn)
  2.7	8373	-8	4	1	3	5
COc1ccc2c3n(nc2c1)CCN=C3c1cc(Cl)c(N)c(Cl)c1
  0.4	3942	-25	nt	2	7	-1
COCCCNC(=S)N/N=C/c1ccc(OC)cc1
  nt	3645	-30	-10	nt	nt	nt
O=c1[nH]c2ccccc2n1Cc1ccc(Cl)cc1
  5.6	2867	-7	-5	7	7	3
COc1cc(OC)cc(C(=O)NNC(=O)c2ccc3c(c2)OCCO3)c1
  2.3	3530	-92	nt	0	3	1
COc1cccc(-c2ccc(SCC(=O)N3CCc4ccccc43)nn2)c1
  19	nt	nt	-2	36	3	0
CC(=O)Nc1ccc(NC(=O)c2cc(-c3ccccc3)nc3ccccc23)cc1
  1.1	3719	-62	1	4	13	-4
NNC(=O)c1ccc(CN2CCCCC2)o1
  -0.8	2636	-10	-8	5	13	17
CC1CCCC(NCC(=O)Nc2ccc(C(N)=O)cc2)C1C (stereo not drawn)
  1.0	3320	-16	-7	7	6	9
CCCCN(CC)Cc1c(C)[nH]c2ccccc2c1=O
  -1.4	4419	-11	-4	2	nt	nt
O=C(c1ccc(N2CCCCS2(=O)=O)cc1)N1CCN(c2ccc(N3CCOCC3)nn2)CC1
  3.3	5527	-19	14	16	4	6
CC(=O)O[C@@H]1C[C@H]2C(C)(C)C(=O)C=C[C@]2(C)[C@H]2CC[C@@]3(C)[C@H](c4ccoc4)OC(=O)[C@H]4O[C@]43[C@@]21C
  nt	3111	6	-9	nt	nt	nt
Cc1cc([N+](=O)[O-])nn1CC(=O)Nc1sc2c(c1C(N)=O)CCCC2
  3.2	4269	-12	4	5	-3	5
S=C(Nc1ccc(Br)cc1Cl)NC1CCN(Cc2ccccc2)CC1
  1.2	4781	-26	0	4	-6	0
CC(=NNC(=O)c1cccnc1)c1ccc(-n2ccnc2)cc1
  2.0	nt	nt	nt	2	1	-2
CCN(CC)C(=O)C[n+]1ccc(C(N)=O)cc1
  3.6	2240	-23	-4	2	8	9
O=C(O)c1ccc(-n2ccnc2)c([N+](=O)[O-])c1
  3.7	2559	-3	-1	3	8	7
Cc1ccc(C2(C)NC(=O)N(CC(=O)Nc3ccc(S(=O)(=O)Nc4nccs4)cc3)C2=O)cc1 (stereo not drawn)
  -1.3	3886	-23	5	-3	6	4

(more compounds)
The line under a structure holds: Sa RN4220 lethal	Autofluor counter	PrP UTR inh	BJeLR lethal	ugtP null kill	Mtb hypoxia inh	Mtb hypoxia inh growth
C/C(=N\NC(=O)C1CC1)c1ccc(Cl)c(Cl)c1
  nt	3551	-14	-3	nt	nt	nt
Cc1ccccc1CS(=O)(=O)CCC(=O)O
  4.0	4350	-4	3	13	10	4
O=C(NCCCc1ccccc1)c1ccccc1O
  5.4	9318	-59	-5	1	15	9
COc1ccc([N+](=O)[O-])cc1N(CC(=O)NCCCOC(C)C)S(C)(=O)=O
  3.1	4022	-23	3	8	9	15
C/C(Cn1nc([N+](=O)[O-])cc1C)=N\NC(=O)COc1c(Cl)cc(Cl)cc1Cl
  nt	2501	-12	3	nt	nt	nt
O=C(O)CC12CC3CC(C1)CC(n1ncc(N4CCC5(CC4)OCCO5)c(Cl)c1=O)(C3)C2
  2.1	5509	-10	-8	5	-5	4
O=c1c(Cl)c(Cl)cnn1Cc1ccc(F)cc1
  nt	2761	3	-6	nt	nt	nt
O=C(O)C1C2CCC(O2)C1C(=O)NC1CCCCC1 (stereo not drawn)
  0.3	2587	-27	-9	1	2	5
CC1CCN(S(=O)(=O)c2c[nH]c(=O)[nH]c2=O)CC1
  2.2	?	-13	-14	1	-7	0
O=C(NCCCN1CCCC1=O)c1cncc(Br)c1
  1.5	16006	-22	nt	-2	-6	-2
Cc1cccc(CN2CCN(c3ccccn3)CC2)c1
  2.9	23318*	-15	-2	0	6	12
COCCOc1ccc(C(F)(F)F)cc1NC(=O)c1ccc(C)cc1
  -0.4	2135	-5	1	-12	2	6
Cc1nc(NS(=O)(=O)c2ccccc2)sc1C(C)(C)C
  6.9	7788	-6	9	-4	1	4
CN(C)/N=C/c1ccc(Sc2ccccc2[N+](=O)[O-])o1
  nt	3685	-3	1	nt	nt	nt
CC(Oc1ccc(Cl)cc1Cl)C(=O)NCCC1=CCCCC1 (stereo not drawn)
  11	1981	-12	17	-13	-1	-7
CC(=O)Oc1c(C)cc(Cl)cc1C(=O)Nc1ccc([N+](=O)[O-])cc1Cl
  98*	2573	-102	nt	96*	nt	nt
NC(=O)COc1ccc(Cc2ncc(C(F)(F)F)cc2Cl)cc1
  8.2	3295	-20	1	0	11	5
O=C(CSC1=NS(=O)(=O)c2cc(Cl)ccc2N1)NCc1ccccc1
  1.5	5899	-14	17	6	3	12
O=C(COC(=O)c1ccc[nH]c1=O)NC1CC1
  5.4	3973	-22	nt	11	12	8
O=C(N/N=C/c1ccccn1)c1ccc([N+](=O)[O-])cc1
  nt	4147	-30	-3	nt	nt	nt
Cc1cc2c(cc1S(=O)(=O)N1CCOCC1)NC(=O)CO2
  7.0	3453	-10	-2	10	7	8
CCC(=O)NC(=S)Nc1ccc(NC(=O)COc2ccc([N+](=O)[O-])cc2)cc1
  10.0	2422	-13	-2	-4	18	11
COc1ccccc1CCC(=O)Nc1ccc(C)cc1Cl
  3.0	4274	-62	-1	5	-7	4
S=C(NCCc1ccccc1)NCc1ccccc1Cl
  -2.2	2557	-32	-4	-4	-2	9
CCN(C(=O)COC(=O)c1cc(S(=O)(=O)N(C)C)ccc1Cl)C1CCS(=O)(=O)C1 (stereo not drawn)
  -1.2	7061	-19	-5	-2	-1	-4
CCCOc1ccccc1C1C(C(=O)OC)=CN(C(C)C)C=C1C(=O)OC
  0.8	5194	-30	8	4	nt	nt
COc1ccccc1N1CCN(C(CNC(=O)c2ccco2)c2cccnc2)CC1 (stereo not drawn)
  -12	6894	-10	5	-2	5	7
COc1ccc(CCNC(=O)COC(=O)c2cnc(C)cn2)cc1
  3.5	3522	-2	10	-5	9	1

Compound activity: PubChem BioAssay, several laboratories
